# UUG fidelity = modulators of yeast start codon fidelity, primary screen, whole organism, S. cerevisiae, single point, plate reader | S. cerevisiae UUG-firefly luciferase reporter, luminescence/redox ratio | activity score, % at 18.7 µM | actives 0.13% (n = 350,000);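 active = replicate mean at a twofold rise or more, about +100% in these data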;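 also: firefly luciferase made from a UUG start codon reports start codon fidelity; reporter light over untreated wells divided by growth signal over untreated wells; some hits fall short of that in this replicate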
# * marks the source's active call; other numbers are inactive results. An excerpt. The share of hits here may be higher or lower than overall.
UUG fidelity | SMILES
19.6 | CN1C(=O)c2cc(NC(=O)c3cccc(C(F)(F)F)c3)ccc2OC[C@@H]2O[C@@H](CC(=O)NCCN3CCCC3)CC[C@H]21
0.9 | CN1c2ccc(-c3ccccc3)cc2[C@@H]2[C@@H](CCN2C(=O)Cc2ccccn2)[C@@H]1CO
-6.7 | Cc1noc(C)c1S(=O)(=O)N(C)C[C@H]1OCc2cn(nn2)CCCC(=O)N([C@H](C)CO)C[C@H]1C
-3.8 | CC(=O)N1CC[C@@H]2[C@H]1c1cc(-c3ccc(C#N)cc3)ccc1N(C)[C@H]2CO
-3.0 | COCC(=O)Nc1ccc2c(c1)OC[C@@H](C)N(Cc1ccccc1F)C[C@@H](C)[C@H](OC)CN(C)C2=O
-12.1 | CCCC#Cc1ccc([C@@H]2[C@@H](CO)N3CCCCN(CC4CC4)C[C@H]23)cc1
0.7 | O=C(Nc1ccccc1)N1CCCCN2[C@H](CO)[C@H](c3ccc(-c4ccncc4)cc3)[C@H]2C1
-12.3 | COCC(=O)Nc1ccc2c(c1)C(=O)N(C)C[C@H](OC)[C@H](C)CN(C(=O)c1ccccn1)[C@@H](C)CO2
3.1 | C[C@H](NC(=O)C[C@@H]1C[C@H]2c3cc(NC(=O)C4CCC4)ccc3O[C@H]2[C@H](CO)O1)c1ccccc1
-4.5 | CO[C@@H]1CN(C)C(=O)c2cc(NC(=O)CC(F)(F)F)ccc2OC[C@@H](C)N(S(=O)(=O)c2cn(C)cn2)C[C@@H]1C
-12.0 | C/C=C/c1ccc([C@H]2[C@@H](CO)N3CCCCN(C)C[C@H]23)cc1
-1.6 | C[C@@H]1CN([C@H](C)CO)C(=O)c2cc(NC(=O)Nc3ccc(C(F)(F)F)cc3)ccc2O[C@@H]1CN(C)Cc1ccc(Cl)c(Cl)c1
9.3 | CC(C)NC(=O)Nc1ccc2c(c1)C(=O)N([C@H](C)CO)C[C@@H](C)[C@@H](CN(C)S(=O)(=O)c1ccccc1)O2
-6.0 | Cc1ccc(S(=O)(=O)Nc2ccc3c(c2)C(=O)N([C@@H](C)CO)C[C@@H](C)[C@H](CN(C)CC2CC2)O3)cc1
-8.8 | COc1ccc(NC(=O)Nc2cccc3c2O[C@H](CN(C)C)[C@H](C)CN([C@@H](C)CO)C3=O)cc1
-14.1 | COc1ccc(C#Cc2ccc3c(c2)[C@@H]2[C@@H](CCN2S(=O)(=O)c2cccc(OC)c2)[C@@H](CO)N3)cc1
101.1* | O=C(C1CCC1)N1C[C@H]2[C@@H](c3ccccc31)[C@H](CO)N2C(=O)c1ccccc1
3.1 | CCN(C[C@H]1N[C@@H](CO)[C@@H]1c1ccc(-c2cccc(C#N)c2)cc1)C(=O)COC
-3.4 | COc1ccc(CN(C)C[C@H]2Oc3c(NS(=O)(=O)c4ccc(Cl)cc4)cccc3C(=O)N([C@@H](C)CO)C[C@H]2C)cc1
6.3 | Cc1cc(C(=O)Nc2cccc3c2O[C@@H](CN(C)Cc2ccc(C(=O)Nc4ccccc4N)cc2)[C@H](C)CN([C@H](C)CO)C3=O)n(C)n1
-3.9 | Cc1cccc(-c2ccc([C@H]3[C@@H](CO)N4CCCCN(S(=O)(=O)c5cn(C)cn5)C[C@@H]34)cc2)c1
2.3 | C[C@@H]1CN([C@H](C)CO)C(=O)c2cc(NC(=O)Nc3cccc4ccccc34)ccc2O[C@H]1CN(C)C(=O)Nc1ccc(C(F)(F)F)cc1
12.6 | CC(=O)N(C[C@@H]1N[C@@H](CO)[C@H]1c1ccc(-c2ccccc2)cc1)C(C)C
0.6 | CC(C)NC(=O)N1[C@@H](CO)[C@H](c2ccccc2)[C@@H]1CN(C)C(=O)c1cccnc1
5.2 | C[C@@H]1CN([C@H](C)CO)C(=O)CCCn2cc(nn2)CO[C@H]1CN(C)Cc1ccccc1C(=O)O
-30.4 | OC[C@H]1[C@H](c2ccc(Br)cc2)[C@H]2CN(Cc3ccccn3)CCCCN21
-1.9 | COc1ccc(-c2ccc([C@H]3[C@H]4CN(CC5CCOCC5)CCCCN4[C@H]3CO)cc2)cc1
-12.5 | C[C@H]1CN([C@@H](C)CO)C(=O)c2cc(NC(=O)c3ccncc3)ccc2O[C@H]1CN(C)S(=O)(=O)c1cn(C)cn1
-9.3 | C[C@H]1CN([C@@H](C)CO)C(=O)c2cc(NS(=O)(=O)c3cccs3)ccc2O[C@@H]1CN(C)Cc1ccc2c(c1)OCO2
1.3 | CC(C)NC(=O)Nc1cccc2c1O[C@H](CN(C)C(=O)Nc1ccc3c(c1)OCO3)[C@H](C)CN([C@@H](C)CO)C2=O
6.2 | CC(=O)N(C)C[C@H]1[C@H](c2ccc(-c3ccccc3F)cc2)[C@@H](CO)N1C(C)=O
8.6 | CO[C@H]1CN(C)C(=O)c2cc(NC(=O)C3CCCC3)ccc2OC[C@H](C)N(CCC(F)(F)F)C[C@@H]1C
-1.4 | CCC(=O)N1[C@H](CO)[C@H]2c3ccccc3N(S(=O)(=O)c3ccccc3F)C[C@H]21
3.0 | CN1C[C@H]2[C@@H](c3ccccc31)[C@@H](CO)N2Cc1ccccc1
-5.3 | CN1C(=O)c2cc(NC(=O)Nc3cccc(Cl)c3)ccc2OC[C@@H]2O[C@H](CC(=O)NCCc3ccncc3)CC[C@H]21
6.0 | CO[C@@H]1CN(C)C(=O)c2cc(NS(=O)(=O)c3ccccc3)ccc2OC[C@@H](C)N(Cc2cccnc2)C[C@H]1C

# Among those listed so far, three contain a Cl atom:
UUG fidelity | SMILES
-1.6 | C[C@@H]1CN([C@H](C)CO)C(=O)c2cc(NC(=O)Nc3ccc(C(F)(F)F)cc3)ccc2O[C@@H]1CN(C)Cc1ccc(Cl)c(Cl)c1
-3.4 | COc1ccc(CN(C)C[C@H]2Oc3c(NS(=O)(=O)c4ccc(Cl)cc4)cccc3C(=O)N([C@@H](C)CO)C[C@H]2C)cc1
-5.3 | CN1C(=O)c2cc(NC(=O)Nc3cccc(Cl)c3)ccc2OC[C@@H]2O[C@H](CC(=O)NCCc3ccncc3)CC[C@H]21

# Reformatted tab-delimited: 7 of the compounds above.
SMILES	UUG fidelity
CN1c2ccc(-c3ccccc3)cc2[C@@H]2[C@@H](CCN2C(=O)Cc2ccccn2)[C@@H]1CO	0.9
Cc1noc(C)c1S(=O)(=O)N(C)C[C@H]1OCc2cn(nn2)CCCC(=O)N([C@H](C)CO)C[C@H]1C	-6.7
CC(=O)N1CC[C@@H]2[C@H]1c1cc(-c3ccc(C#N)cc3)ccc1N(C)[C@H]2CO	-3.8
COCC(=O)Nc1ccc2c(c1)OC[C@@H](C)N(Cc1ccccc1F)C[C@@H](C)[C@H](OC)CN(C)C2=O	-3.0
CCCC#Cc1ccc([C@@H]2[C@@H](CO)N3CCCCN(CC4CC4)C[C@H]23)cc1	-12.1
O=C(Nc1ccccc1)N1CCCCN2[C@H](CO)[C@H](c3ccc(-c4ccncc4)cc3)[C@H]2C1	0.7
COCC(=O)Nc1ccc2c(c1)C(=O)N(C)C[C@H](OC)[C@H](C)CN(C(=O)c1ccccn1)[C@@H](C)CO2	-12.3

# Carrying on.
UUG fidelity | SMILES
-6.5 | Cc1noc(C)c1NC(=O)N(C)C[C@@H]1Oc2ccc(NS(C)(=O)=O)cc2C(=O)N([C@@H](C)CO)C[C@@H]1C
-16.0 | CCCNC(=O)[C@H]1[C@H](CO)[C@H]2Cn3c(cccc3=O)[C@@H]1N2C(=O)C1CCCC1
-25.0 | COc1cccc(CNC(=O)[C@H]2[C@H](CO)[C@H]3Cn4c(cccc4=O)[C@@H]2N3C(=O)C2CC2)c1
-16.5 | COc1ccc(S(=O)(=O)N2CC[C@H]3[C@H](CO)Nc4ccc(Br)cc4[C@H]32)cc1
-16.4 | CO[C@H]1CN(C)C(=O)c2cc(NS(=O)(=O)CC(F)(F)F)ccc2OC[C@@H](C)N(Cc2ccccn2)C[C@@H]1C
-7.6 | O=C(CC(F)(F)F)N1C[C@H]2[C@@H](c3ccccc31)[C@@H](CO)N2Cc1cccnc1
0.2 | CCC(=O)N1CCCCN2[C@H](CO)[C@@H](c3ccc(-c4cccc(C#N)c4)cc3)[C@H]2C1
1.8 | COc1ccc(CN2[C@H](CO)[C@@H]3c4ccccc4NC[C@@H]32)cc1
-2.5 | CC(C)NC(=O)Nc1ccc2c(c1)C(=O)N([C@@H](C)CO)C[C@H](C)[C@@H](CN(C)Cc1ccc(Oc3ccccc3)cc1)O2
16.7 | C[C@@H]1CN([C@@H](C)CO)C(=O)c2cc(NC(=O)Nc3cccc4ccccc34)ccc2O[C@@H]1CN(C)S(C)(=O)=O
6.3 | C[C@H](CO)N1C[C@H](C)[C@H](CN(C)S(=O)(=O)c2ccc(F)cc2)Oc2ccc(N(C)C)cc2C1=O
-5.0 | O=C(Nc1cccc(Cl)c1)N1C[C@H]2[C@@H](c3ccccc31)[C@H](CO)N2C(=O)C1CC1
-3.9 | O=C(c1cccnc1)N1CC[C@@H]2[C@@H](CO)Nc3ccc(-c4ccccc4)cc3[C@@H]21
4.8 | O=C(c1cccc(F)c1)N1CCCCN2[C@H](CO)[C@H](c3ccc(-c4cncnc4)cc3)[C@@H]2C1
-2.4 | CO[C@H]1CN(C)C(=O)c2ccc(NC(=O)c3ccccc3F)cc2OC[C@H](C)N(CC2CCOCC2)C[C@H]1C
12.3 | C[C@@H]1CN([C@@H](C)CO)C(=O)c2cccc(NC(=O)Nc3ccc(F)cc3)c2O[C@H]1CN(C)C
3.9 | O=C(C[C@@H]1C[C@H]2c3cc(NC(=O)CC4CC4)ccc3O[C@H]2[C@H](CO)O1)NCc1ccccc1F
-7.7 | O=C(C[C@@H]1C[C@@H]2c3cc(NC(=O)Nc4ccc(F)cc4)ccc3O[C@@H]2[C@H](CO)O1)NCC(F)(F)F
33.9 | C[C@H](NC(=O)C[C@H]1CC[C@H]2[C@@H](COC[C@H](O)CN2C(=O)Nc2cccc(F)c2)O1)c1ccccc1
-3.6 | COc1ccccc1C(=O)N1C[C@@H]2[C@H](c3ccccc31)[C@H](CO)N2C(=O)Cc1cccnc1
-3.9 | CO[C@@H]1CN(C)C(=O)c2ccc(NS(C)(=O)=O)cc2OC[C@@H](C)N(CC2CC2)C[C@@H]1C
-0.7 | C[C@H](CO)N1C[C@H](C)[C@@H](CN(C)C)Oc2ccc(NC(=O)Nc3cccc4ccccc34)cc2CC1=O
-4.6 | C[C@@H]1CN([C@@H](C)CO)C(=O)c2cccc(NC(=O)C3CCCCC3)c2O[C@H]1CN(C)C(=O)Nc1ccc(C(F)(F)F)cc1
1.7 | COc1ccc(S(=O)(=O)N(C)C[C@H]2Oc3ccc(NC(=O)NC4CCCCC4)cc3C(=O)N([C@@H](C)CO)C[C@H]2C)cc1
-2.4 | COc1ccccc1C(=O)N1C[C@@H]2[C@H](c3ccccc31)[C@@H](CO)N2C(=O)C1CC1
1.9 | CO[C@@H]1CN(C)C(=O)c2ccc(NC(=O)c3ccccc3F)cc2OC[C@@H](C)N(C(C)=O)C[C@@H]1C
1.6 | CN(C)C(=O)C[C@H]1C[C@@H]2c3cc(NC(=O)c4ccc5c(c4)OCO5)ccc3O[C@@H]2[C@H](CO)O1
7.1 | CCCNC(=O)N1C[C@@H]2[C@H](c3ccccc31)[C@@H](CO)N2Cc1ccc2c(c1)OCO2
-0.3 | O=C(C[C@H]1CC[C@@H]2[C@H](COC[C@@H](O)CN2Cc2ccccc2F)O1)N[C@H]1CCN(Cc2ccccc2)C1
3.0 | C[C@H](CO)N1C[C@H](C)[C@H](CN(C)C(=O)Nc2ccc(F)cc2)Oc2ccc(NS(C)(=O)=O)cc2CC1=O
3.0 | O=S(=O)(Cc1ccccc1)N1CCCCN2[C@H](C1)[C@@H](c1ccc(-c3ccc(F)cc3)cc1)[C@@H]2CO
18.9 | C[C@@H]1CN([C@@H](C)CO)C(=O)Cc2cc(NC(=O)Cn3cnnn3)ccc2O[C@H]1CN(C)Cc1ccc(Cl)c(Cl)c1
-9.6 | CCCNC(=O)C[C@@H]1CC[C@H]2[C@@H](COC[C@@H](O)CN2C(=O)C2CCOCC2)O1
-1.0 | CN1C(=O)c2cc(NC(=O)c3ccc(F)c(F)c3)ccc2OC[C@H]2O[C@@H](CC(=O)Nc3ccc4c(c3)COC4)CC[C@@H]21
-15.0 | Cc1noc(C)c1S(=O)(=O)Nc1ccc2c(c1)C(=O)N([C@@H](C)CO)C[C@@H](C)[C@@H](CN(C)C(=O)NC1CCCCC1)O2
5.1 | COC(=O)C[C@@H]1CC[C@H]2[C@H](COc3ccc(NC(=O)Nc4cccc(C#N)c4)cc3C(=O)N2C)O1
31.1 | CCCNC(=O)N1CC[C@@H]2[C@H]1c1cc(-c3ccc(OC)cc3)ccc1N(C)[C@H]2CO
8.4 | C[C@@H]1CN([C@@H](C)CO)C(=O)Cc2cc(NS(=O)(=O)c3ccc(Cl)cc3)ccc2O[C@H]1CN(C)C(=O)Nc1ccccc1
21.6 | Cc1ccc(S(=O)(=O)N(C)C[C@H]2Oc3ccc(NC(=O)C4CC4)cc3CC(=O)N([C@@H](C)CO)C[C@@H]2C)cc1
12.5 | COC(=O)[C@H]1[C@H](CO)[C@H]2Cn3c(ccc(C4=CCCCC4)c3=O)[C@H]2N1C(=O)C1CC1
1.4 | O=C(C[C@H]1CC[C@H]2[C@@H](COC[C@@H](O)CN2Cc2nccs2)O1)NCc1ccc(-c2ccccc2)cc1
-11.6 | O=C(NC1CCCC1)N1CCCCN2[C@@H](CO)[C@H](c3ccc(-c4cccnc4)cc3)[C@@H]2C1
26.6 | CC(=O)N1C[C@@H]2[C@H](c3ccccc31)[C@@H](CO)N2C(=O)Nc1ccc(F)cc1
-8.3 | Cc1nn(C)cc1NC(=O)C[C@H]1CC[C@@H]2[C@H](COc3ccc(NC(=O)Nc4cccc(Cl)c4)cc3C(=O)N2C)O1
0.0 | C[C@@H]1CN([C@@H](C)CO)C(=O)c2cccc(NC(=O)Nc3ccc(F)cc3)c2O[C@H]1CN(C)Cc1ccc(C(F)(F)F)cc1
14.3 | CCNC(=O)C[C@H]1CC[C@@H]2[C@H](COc3ccc(NC(=O)Nc4ccccc4Cl)cc3C(=O)N2C)O1
-2.9 | COc1cccc(CN2CCCCN3[C@H](C2)[C@@H](c2ccc(C#Cc4cccnc4)cc2)[C@@H]3CO)c1
-1.6 | C[C@H]1CN([C@@H](C)CO)C(=O)c2cc(NS(=O)(=O)c3cn(C)cn3)ccc2O[C@@H]1CN(C)C(=O)NC1CCCCC1
